# DUX4 txn inh: DUX4-mediated transcription inhibition; 293T-iDUX4 ZSCAN4-Gaussia luciferase reporter, 24 h; hits give low values; activity change, negative = inhibition, % (concentration not given with the values); 37,000 tested, 0.8% active;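 active = -10% or lower and over 25 points stronger than a control reporter; inconclusive = -10% or lower with a smaller gap; inactive = above -10%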;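 note: 0% = median of neutral control wells and -100% = median of positive control wells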
# DUX4 txn inh difference: further read-out of DUX4 txn inh, marked with its call; Gaussia minus Italica difference, %; measured here: selective DUX4 reporter inhibition;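 worked out from the two reporters; negative = selective loss of the DUX4 reporter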
# DUX4 txn inh control: also measured in DUX4 txn inh; calls as there; activity change, negative = inhibition, %; measured here: Italica tet-on control reporter;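 0 = neutral control and -100 = positive control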
# * = called active by the depositor; u = inconclusive; x = not tested or not shown; & = joins results of further samples.
DUX4 txn inh	DUX4 txn inh difference	DUX4 txn inh control	structure
0.2	-1.8	2.0	COc1ccccc1-c1ccccc1[C@@H]1[C@@H](C#N)N(C(=O)CN(C)C)[C@@H]1CO
0.2	0.6	-0.3	CCCNC(=O)Nc1ccc2c(c1)C(=O)N(C)[C@H]1CC[C@@H](CC(=O)O)O[C@H]1CO2
0.3	6.8	-6.5	C/C=C/c1ccc([C@@H]2[C@H](CN(C)S(C)(=O)=O)N[C@@H]2CO)cc1
-1.9	0.5	-2.5	Cc1ccccc1-c1ccc([C@H]2[C@H](CO)N3C(=O)CN(C(=O)Nc4cccc(F)c4)C[C@@H]23)cc1
2.1	-2.1	4.1	COc1ccccc1CNC(=O)C[C@H]1CC[C@@H]2[C@H](COC[C@@H](O)CN2Cc2ccccc2)O1
21.4	22.9	-1.5	O=S(=O)(c1ccccc1)N1CC[C@@H]2[C@H]1c1cc(C#CC3CCCCC3)ccc1N[C@@H]2CO
-7.4	-3.1	-4.3	O=C(c1ccc(F)cc1)N1C[C@@H]2N[C@H](C1)C2c1ccc(-c2ccc(F)cc2)cc1 (stereo partly specified)
8.8	-1.4	10.3	CCNC(=O)[C@@H]1[C@@H](CO)[C@@H]2Cn3c(ccc(-c4ccc(F)cc4)c3=O)[C@H]1N2C
u	x	x	O=S(=O)(c1ccccc1F)N1CC[C@@H]2[C@@H](CO)Nc3ccc(-c4cccc(F)c4)cc3[C@@H]21
-4.8	-4.2	-0.5	CO[C@@H]1CN(C)C(=O)c2ccc(NC(=O)C3CCOCC3)cc2OC[C@@H](C)N(Cc2cccnc2)C[C@H]1C
0.5	0.7	-0.2	O=C(c1cccnc1)N1CC(=O)N2[C@H](CO)[C@@H](c3ccc(/C=C/c4ccccc4)cc3)[C@H]2C1
2.7	1.1	1.6	CCC(=O)N1[C@H](CO)[C@@H](c2ccccc2)[C@@H]1CNC(=O)CN1CCOCC1
4.1	-1.4	5.5	COc1cccc(CNC(=O)C[C@H]2CC[C@@H](NC(C)=O)[C@@H](CO)O2)c1
u	x	x	COc1ccc(CN2CC3(CCN(Cc4ccccn4)CC3)c3c(n(C)c4cc(OC)ccc34)[C@H]2CO)cc1
-34.4*	-26.5*	-8.0*	COc1ccccc1CNC(=O)C[C@H]1C[C@H]2c3cc(NC(=O)Cc4ccncc4)ccc3O[C@H]2[C@H](CO)O1
-3.7	-3.8	0.2	COCC(=O)N(C)C[C@@H]1[C@@H](c2ccc(-c3cccnc3)cc2)[C@H](CO)N1C(C)=O
5.5	2.3	3.2	Cc1noc(C)c1NC(=O)N(C)C[C@@H]1OCc2cn(nn2)CCCC(=O)N([C@H](C)CO)C[C@@H]1C
-4.9	-2.8	-2.1	COc1ccccc1NC(=O)N[C@H]1CC[C@@H](CC(=O)N[C@H](C)c2ccccc2)O[C@@H]1CO
5.5	1.6	3.9	CCCNC(=O)N(C)C[C@@H]1Oc2ncc(C#CCc3ccccc3)cc2C(=O)N([C@@H](C)CO)C[C@H]1C
-0.4	3.1	-3.5	CCCNC(=O)[C@@H]1[C@@H](CO)[C@@H]2Cn3c(cccc3=O)[C@H]1N2C(=O)C1CCCC1

# More records
DUX4 txn inh	DUX4 txn inh difference	DUX4 txn inh control	structure
7.8	5.3	2.5	O=C(C[C@H]1CC[C@@H]2[C@H](COC[C@@H](O)CN2Cc2ccncc2)O1)NCc1ccccc1Cl
4.2	5.1	-0.9	CNC(=O)C[C@@H]1CC[C@H]2[C@@H](COc3ccc(NC(=O)Nc4ccc(F)c(F)c4)cc3C(=O)N2C)O1
3.7	-1.0	4.7	COc1ccc(-c2ccc([C@@H]3[C@H]4CN(CC5CCOCC5)CCCCN4[C@H]3CO)cc2)cc1
3.3	0.9	2.4	COc1ccccc1CNC(=O)C[C@@H]1C[C@@H]2c3cc(NC(=O)C4CCC4)ccc3O[C@@H]2[C@H](CO)O1
1.1	3.4	-2.4	CN1C[C@H]2[C@@H](c3ccccc31)[C@H](CO)N2C(=O)CN1CCOCC1
3.8	5.2	-1.4	C/C=C/c1ccc([C@H]2[C@@H](CO)N3C(=O)CN(C(=O)Nc4ccc(F)cc4)C[C@H]23)cc1
u	x	x	C[C@@H]1CN([C@@H](C)CO)C(=O)c2c(c3ccccc3n2C)-c2ccccc2CO[C@@H]1CN(C)Cc1ccc(F)cc1
-2.8	0.0	-2.9	CN(C[C@H]1N[C@@H](CO)[C@@H]1c1ccccc1)C(=O)c1ccccn1
-2.2	-21.9	19.6	COCC(=O)N1CC(=O)N2[C@H](C1)[C@@H](c1ccc(C#Cc3cccnc3)cc1)[C@@H]2CO
-0.9	-2.9	2.0	CN1[C@@H]2Cn3c(ccc(-c4ccccc4)c3=O)[C@H]1[C@@H](C(=O)NCCc1ccccc1)[C@@H]2CO
15.6&6.2	5.6&1.5	10.1&4.7	CN(C)C(=O)c1cccc(-c2ccc(C3[C@H]4CNC[C@@H]3N4S(=O)(=O)c3ccc(Cl)cc3)cc2)c1 (stereo partly specified)
-5.8	0.1	-6.0	CS(=O)(=O)N1[C@H](CO)[C@@H](c2ccc(C#CC3CC3)cc2)[C@@H]1C#N
u	x	x	CCCNC(=O)N1CC2(CCN(C(=O)C3CCCCC3)CC2)c2c([nH]c3cc(OC)ccc23)[C@H]1CO
3.1	2.9	0.1	C[C@H]1CCCCO[C@@H](CN(C)Cc2ccc(C(F)(F)F)cc2)[C@@H](C)CN([C@@H](C)CO)C(=O)c2cc(NC(=O)Nc3cccc4ccccc34)ccc2O1
4.4	-0.1	4.4	CCNC(=O)Nc1ccc2c(c1)C(=O)N(C)[C@@H]1CC[C@@H](CC(=O)NCC3CC3)O[C@@H]1CO2
12.9	7.4	5.4	COCC(=O)N1[C@H](C#N)[C@@H](c2ccccc2-c2ccc(C)cc2)[C@@H]1CO
4.4	1.5	2.9	CN(C)CCCNC(=O)C[C@H]1CC[C@@H]2[C@H](COc3ccc(NC(=O)c4ccc5c(c4)OCO5)cc3C(=O)N2C)O1
1.3	-2.7	4.1	C[C@@H]1CN([C@@H](C)CO)C(=O)CCCn2cc(nn2)CO[C@H]1CN(C)Cc1ccc2cccnc2c1
-7.4	-5.9	-1.5	C[C@@H]1CN([C@H](C)CO)C(=O)c2cc(NS(=O)(=O)c3cn(C)cn3)ccc2O[C@H]1CN(C)S(=O)(=O)c1ccc(F)cc1
3.7	1.8	1.9	CC(=O)N1[C@H](CO)[C@H]2c3ccccc3N(C(=O)Nc3cc(F)ccc3F)C[C@H]21

# (listing goes on)
DUX4 txn inh	DUX4 txn inh difference	DUX4 txn inh control	structure
4.2	-2.9	7.1	CN1CCN(C(=O)C[C@H]2CC[C@H]3[C@@H](COC[C@H](O)CN3C(=O)Nc3ccc(Cl)cc3)O2)CC1
u	x	x	COc1ccc2c3c(n(C)c2c1)[C@@H](CO)N(Cc1ccncc1)CC31CCN(C(=O)Cc2ccncc2)CC1
u	x	x	COc1cccc(CNC(=O)[C@@H]2N[C@@H]3c4ccc(/C=C/c5ccccc5)c(=O)n4C[C@@H]3[C@H]2CO)c1
18.5	7.5	11.0	COc1ccc2c3c([nH]c2c1)[C@@H](CO)N(C(=O)C1CCOCC1)CC31CCN(S(C)(=O)=O)CC1
4.2	4.3	-0.1	CN(C)C(=O)C[C@@H]1CC[C@H]2[C@@H](COC[C@H](O)CN2Cc2ccc(C(F)(F)F)cc2)O1
5.3	6.8	-1.5	Cc1noc(C)c1NC(=O)N1C[C@@H](O)COC[C@@H]2O[C@@H](CC(=O)N3CCc4ccccc4C3)CC[C@H]21
3.2	-0.4	3.6	O=C(O)C[C@@H]1CC[C@H](NC(=O)c2ccncc2)[C@@H](CO)O1
-0.6	0.2	-0.8	O=C(C[C@H]1C[C@@H]2c3cc(NC(=O)C4CCC4)ccc3O[C@@H]2[C@@H](CO)O1)NCc1ccc(Cl)cc1
-1.7	-3.4	1.7	C/C=C/c1cnc2c(c1)C(=O)N([C@@H](C)CO)C[C@H](C)[C@@H](CN(C)S(=O)(=O)c1cn(C)cn1)O2
-1.3	-2.0	0.6	CCCNC(=O)[C@@H]1N[C@@H]2c3ccc(-c4cccc(F)c4)c(=O)n3C[C@@H]2[C@H]1CO
-2.6	-0.3	-2.3	COCC(=O)N1[C@@H]2CN(C(=O)c3ccccc3)c3ccccc3[C@@H]2[C@@H]1CO
-1.9	-2.4	0.5	C[C@@H]1CN([C@@H](C)CO)C(=O)c2cc(NC(=O)C3CCCCC3)ccc2O[C@@H](C)CCCCO[C@H]1CN(C)CC1CCCCC1
8.3	9.8	-1.5	C[C@@H]1CN([C@@H](C)CO)C(=O)c2ccccc2-c2ccccc2CO[C@@H]1CN(C)C(=O)Nc1ccc(F)cc1
6.7	5.5	1.2	COc1cccc(CNC(=O)C[C@@H]2CC[C@H](NC(C)=O)[C@@H](CO)O2)c1
-9.8	-3.7	-6.1	CS(=O)(=O)N1CC2(C1)[C@@H](c1ccccc1)[C@@H](CO)N2Cc1ccc(F)cc1
4.4	2.9	1.5	CO[C@H](CN(C)C(=O)c1cnccn1)[C@@H](C)CN([C@H](C)CO)S(=O)(=O)c1ccc(Cl)cc1
-0.9	-1.4	0.5	CO[C@@H]1CC[C@@H]2CCN(C)C(=O)[C@@H](C)N(C)C(=O)c3cccc(C#N)c3OC[C@H]1O2
-0.7	7.6	-8.3	N#Cc1ccc(-c2ccc([C@H]3[C@H]4CN(C(=O)Cc5ccccc5)CC(=O)N4[C@H]3CO)cc2)cc1
-8.0	3.0	-11.0	CN(C)C(=O)c1ccc(-c2ccc3c(c2)[C@H]2[C@H](CCN2C(=O)c2ccccc2F)[C@@H](CO)N3)cc1
2.8	8.8	-5.9	N#C[C@@H]1[C@H](c2ccccc2-c2cccc(F)c2)[C@@H](CO)N1S(=O)(=O)c1cccc(F)c1

# (further entries)
DUX4 txn inh	DUX4 txn inh difference	DUX4 txn inh control	structure
3.1	2.9	0.2	CN1c2ccc(Br)cc2[C@H]2[C@H](CCN2C(=O)Nc2cccc(F)c2)[C@H]1CO
3.5	-2.1	5.6	CC(C)(O)C#Cc1ccc([C@H]2[C@H]3CN(Cc4ccccc4F)CCCCN3[C@H]2CO)cc1
-1.5	-10.0	8.5	O=C(c1ccccn1)N1CC(=O)N2[C@H](CO)[C@H](c3ccc(C#Cc4ccccc4)cc3)[C@@H]2C1
11.3	-4.2	15.4	COc1ccc2c3c(n(C)c2c1)[C@H](CO)NCC31CN(C(=O)Nc2ccccc2F)C1
-0.7	-3.0	2.3	C[C@@H]1CN([C@@H](C)CO)S(=O)(=O)c2ccc(-c3ccncc3)cc2O[C@@H]1CN(C)C(=O)c1ccc2c(c1)OCO2
4.1	2.7	1.3	O=C(N[C@H]1CC[C@@H](CC(=O)N2CCCCC2)O[C@@H]1CO)c1ccccn1
2.4	1.1	1.3	CCCC#Cc1ccc([C@H]2[C@H](C#N)N(C(=O)C3CC3)[C@H]2CO)cc1
4.4	1.6	2.9	COCC(=O)N1[C@H](CO)[C@@H](c2ccc(-c3ccccc3OC)cc2)C12CN(C(C)=O)C2
0.8	-0.4	1.2	CO[C@H]1CN(C)C(=O)c2ccc(NS(C)(=O)=O)cc2OC[C@H](C)N(C(=O)C2CCCCC2)C[C@@H]1C
5.3	9.1	-3.8	O=S(=O)(c1cccs1)N1CCCCN2[C@@H](CO)[C@@H](c3ccc(/C=C/c4ccccc4)cc3)[C@@H]2C1
u	x	x	O=C(C[C@@H]1CC[C@H]2[C@@H](COC[C@@H](O)CN2Cc2ccc(Cl)cc2)O1)NCc1cccc(F)c1
u	x	x	CN1CCCCN2[C@@H](CO)[C@@H](c3ccc(/C=C/c4ccccc4)cc3)[C@@H]2C1
2.1	-7.4	9.5	COc1ccccc1C#Cc1ccc2c(c1)[C@H]1[C@H](CCN1S(=O)(=O)c1cccc(C)c1)[C@@H](CO)N2
0.9	-2.3	3.2	C[C@@H]1CN([C@H](C)CO)C(=O)c2cc(C3=CCCCC3)cnc2O[C@@H]1CN(C)C(=O)Cc1ccncc1
-2.2	-6.3	4.1	CCCNC(=O)N1C[C@H]2[C@@H](c3ccccc31)[C@H](CO)N2Cc1ccc2c(c1)OCO2
-1.0	1.0	-2.1	C[C@@H]1CN([C@H](C)CO)S(=O)(=O)c2ccc(C#CC3CCCC3)cc2O[C@@H]1CN(C)Cc1ccccc1C(=O)O

# In a second layout: 10 of the compounds above
smiles	DUX4 txn inh	DUX4 txn inh difference	DUX4 txn inh control
CCCC#Cc1ccc([C@H]2[C@H](C#N)N(C(=O)C3CC3)[C@H]2CO)cc1	2.4	1.1	1.3
COCC(=O)N1[C@H](CO)[C@@H](c2ccc(-c3ccccc3OC)cc2)C12CN(C(C)=O)C2	4.4	1.6	2.9
CO[C@H]1CN(C)C(=O)c2ccc(NS(C)(=O)=O)cc2OC[C@H](C)N(C(=O)C2CCCCC2)C[C@@H]1C	0.8	-0.4	1.2
O=S(=O)(c1cccs1)N1CCCCN2[C@@H](CO)[C@@H](c3ccc(/C=C/c4ccccc4)cc3)[C@@H]2C1	5.3	9.1	-3.8
O=C(C[C@@H]1CC[C@H]2[C@@H](COC[C@@H](O)CN2Cc2ccc(Cl)cc2)O1)NCc1cccc(F)c1	u	x	x
CN1CCCCN2[C@@H](CO)[C@@H](c3ccc(/C=C/c4ccccc4)cc3)[C@@H]2C1	u	x	x
COc1ccccc1C#Cc1ccc2c(c1)[C@H]1[C@H](CCN1S(=O)(=O)c1cccc(C)c1)[C@@H](CO)N2	2.1	-7.4	9.5
C[C@@H]1CN([C@H](C)CO)C(=O)c2cc(C3=CCCCC3)cnc2O[C@@H]1CN(C)C(=O)Cc1ccncc1	0.9	-2.3	3.2
CCCNC(=O)N1C[C@H]2[C@@H](c3ccccc31)[C@H](CO)N2Cc1ccc2c(c1)OCO2	-2.2	-6.3	4.1
C[C@@H]1CN([C@H](C)CO)S(=O)(=O)c2ccc(C#CC3CCCC3)cc2O[C@@H]1CN(C)Cc1ccccc1C(=O)O	-1.0	1.0	-2.1

# Source: PubChem

# This is a subset. The share of hits here may be higher or lower than overall.
